Assay outcomes: PubChem BioAssay, several laboratories
FGF22 binding = FGF22 (human) thermal shift binding | recombinant FGF22 thermal shift, SYPRO orange fluorescence; percent of sucrose octasulfate shift, DMSO zero | calls only at 9.99 µM | 340,000 tested, 1.5% active;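 active = melting point raised past a set limit in the mean and every replicate; three in four hits are not shown here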
MLL AF4-AF9 inh = inhibitors of human MLL-AF4/AF9 interaction | P42568 | AlphaScreen, biotin-AF4 peptide binding to FLAG-AF9 | inhibition, % at 10 µM | 350,000 tested, 0.47% active | AID 651704;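 active = every replicate reaching a set inhibition limit, whatever the replicate mean, cut at about 25% in these data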;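 also: 0% = plate neutral control median and 100% = total signal loss; the record names both 10 and 1 µM as test concentration; the first replicate is given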
Target sequence (P42568 whole entry, looked up): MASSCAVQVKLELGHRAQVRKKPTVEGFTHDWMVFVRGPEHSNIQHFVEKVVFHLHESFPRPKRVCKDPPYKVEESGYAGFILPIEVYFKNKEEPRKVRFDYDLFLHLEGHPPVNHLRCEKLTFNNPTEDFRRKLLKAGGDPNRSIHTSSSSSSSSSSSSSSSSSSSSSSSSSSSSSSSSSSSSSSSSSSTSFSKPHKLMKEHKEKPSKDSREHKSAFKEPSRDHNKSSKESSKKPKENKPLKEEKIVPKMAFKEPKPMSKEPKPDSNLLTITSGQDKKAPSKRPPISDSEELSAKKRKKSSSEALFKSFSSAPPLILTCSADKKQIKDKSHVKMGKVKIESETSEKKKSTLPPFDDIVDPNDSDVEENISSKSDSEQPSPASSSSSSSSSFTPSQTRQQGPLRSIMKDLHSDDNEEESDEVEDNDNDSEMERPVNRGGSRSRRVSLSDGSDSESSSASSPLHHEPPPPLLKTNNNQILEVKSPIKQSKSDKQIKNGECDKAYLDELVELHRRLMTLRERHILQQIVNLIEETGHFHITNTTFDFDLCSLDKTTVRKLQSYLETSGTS
Bfl-1 A1 inh = inhibitors of the anti-apoptotic protein A1, read as caspase activation | 330,000 tested, 0.066% active | caspase activation, % (concentration not given with the values) | MEF A1-2A-BIM cells, Caspase-Glo 3/7 luminescence, 3 h; percent of clofoctol response, vehicle zero;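 active = over half of replicate activation scores above 10%, or exactly half above 10 with the replicate mean above 10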;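 also: wells of about 30 µL received 50 nL stock; many hits fall short of the cut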
UCH37 DUB inh = blocks the human deubiquitinase UCH37; purified proteasome/UCH37, Ub-AMC cleavage fluorescence; inhibition, % (no concentration beside the values); AID 588478; 330,000 tested, 0.33% active; Q9Y5K5;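 active = mean of two replicates above 20%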;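 also: 0% = compound-free wells with enzyme and 100% = wells lacking proteasome; stock transfer was 100 nL into about 20 µL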
Target sequence (Q9Y5K5 whole entry, looked up): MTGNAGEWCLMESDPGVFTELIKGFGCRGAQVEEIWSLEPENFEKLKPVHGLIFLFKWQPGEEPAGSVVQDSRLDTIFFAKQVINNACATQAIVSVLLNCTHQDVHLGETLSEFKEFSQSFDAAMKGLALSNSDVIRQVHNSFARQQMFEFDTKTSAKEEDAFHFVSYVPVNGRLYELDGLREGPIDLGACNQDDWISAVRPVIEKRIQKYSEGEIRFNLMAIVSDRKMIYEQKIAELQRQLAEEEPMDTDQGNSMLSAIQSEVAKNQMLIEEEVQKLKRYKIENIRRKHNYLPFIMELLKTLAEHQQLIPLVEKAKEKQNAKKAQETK
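Assay system: Proteasome-bound UCH37. Buffer or medium: pH 7.4 Tris-HCl (50 mM) with ovalbumin, ATP-MgCl2, DTT. Incubation: 30 min preincubation with enzyme, 25 min cleavage at room temperature. Measured by: fluorescence, ex 355 nm, em 460 nm. Read-out basis: percent inhibition. Control set: wells without proteasome as full block, compound-free enzyme plus substrate as uninhibited.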
Ecoli rRNA inh = selective bacterial rRNA inhibition in E. coli | E. coli WT GFP vs humanized-ribosome RFP mutants, fluorescence, 24 h; active compounds read low; DMSO median 0, no signal -100 | GFP signal change (wild-type ribosome), % (no concentration beside the values) | 350,000 tested, 1.6% active;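 active = significant combined selectivity score with lowered wild-type GFP, culture density cut under 30%, mutant RFP and density less affected; inactive = any of these conditions unmet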; also: one replicate is shown; some compounds called inactive have numbers as strong as hits
E coli growth = E. coli growth inhibition; Escherichia coli growth, OD600, 23 h; active compounds read low; 330,000 tested, 0.21% active; OD600 absorbance (no concentration beside the values); AID 1053175;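 active = OD600 absorbance below the run mean of sample wells minus 3.6 SD, in any replicate, cut at about 0.56 in these data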;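 also: stock transfer was 300 nL into about 60 µL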
Beta apoptosis = blocks beta cell apoptosis. INS-1E cytokine-induced death, ATP luminescence, 48 h; percent of positive-control rescue, neutral wells zero. protection from apoptosis, % (no concentration beside the values). 300,000 tested, 0.8% active. AID 435005;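 active = all replicates at 75% or more, or half of them and the mean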;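 also: 0% = cytokine-treated negative control wells and 100% = positive control rescue; higher means more ATP so stronger rescue from cytokine killing; wells of about 40 µL received 100 nL stock; the first replicate is given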
T cruzi repl = blocks replication of Trypanosoma cruzi. T. cruzi beta-gal in NIH3T3, luminescence, 90 h. inhibition, % (concentration not given with the values). 300,000 tested, 1.4% active;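 active = mean inhibition across valid replicates above about 55%, limit read from the data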;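 also: signal also drops with host cell toxicity which is not excluded here; 0% = plate median of DMSO wells and 100% = zero luminescence signal; higher percent means less beta-gal luminescence so fewer parasites; stock transfer was 50 nL into about 50 µL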
Ecoli rRNA inh OD600 = further read-out of Ecoli rRNA inh, marked with its call; OD600 change, %; measured here: OD600 growth;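 optical density of the mix in the first replicate; 0 = DMSO median and -100 = no signal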
Ecoli rRNA inh RFP = second read-out of Ecoli rRNA inh, no call of its own (marks repeat the call); RFP signal change, %; measured here: RFP humanized mutant strains;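 first replicate; 0 = DMSO median and -100 = no signal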
An asterisk follows results filed as active; i = inactive; . = no result given. This is a subset (hit frequency here may not be typical).

Short forms – A = FGF22 binding; B = MLL AF4-AF9 inh; C = Bfl-1 A1 inh; D = UCH37 DUB inh; E = Ecoli rRNA inh; F = Ecoli rRNA inh OD600; G = Ecoli rRNA inh RFP; H = E coli growth; I = Beta apoptosis; J = T cruzi repl
Cc1nn(Cc2cccc(C(=O)Nn3cc([N+](=O)[O-])cn3)c2)c(C)c1[N+](=O)[O-]
  A = i | B = -2.2 | C = 0.6 | D = 8.0 | E = -4.7 | F = 3.0 | G = 1.3 | H = 0.706 | I = -4.8 | J = -0.5

C/C(CS(=O)(=O)c1ccc(Cl)cc1)=N/NC(N)=S
  A = i | B = 0.1 | C = 0.5 | D = . | E = 9.8 | F = 5.7 | G = 0.6 | H = . | I = -2.5 | J = -16.3

Cc1sc(NC(=O)C2C3C=CC(C3)C2C(=O)O)c(C(N)=O)c1-c1ccc(C(C)C)cc1 (centres undefined)
  A = . | B = . | C = -0.5 | D = 5.1 | E = . | F = . | G = . | H = 0.709 | I = -4.5 | J = -17.8

CC1CCCCN1C(=O)/C=C/c1ccccc1[N+](=O)[O-] (centres undefined)
  A = i | B = -1.8 | C = 0.6 | D = 6.0 | E = -2.2 | F = -0.6 | G = -1.1 | H = 0.683 | I = 0.2 | J = -5.5

COc1cc(Oc2ccccc2)nc(N)n1
  A = i | B = 0.3 | C = -0.8 | D = 2.6 | E = 6.2 | F = 12.0 | G = -0.5 | H = 0.649 | I = . | J = -4.2

COc1ccc(-n2c(SCC(=O)Nc3nccs3)nc3c(c2=O)SC(C)C3)cc1 (centres undefined)
  A = i | B = 1.1 | C = 1.0 | D = 5.9 | E = 2.5 | F = 5.2 | G = -3.2 | H = 0.787 | I = -3.9 | J = -0.6

CC/C(C)=N\Nc1nc(-c2cc3cc(OC)ccc3oc2=O)cs1
  A = i | B = -0.4 | C = -1.6 | D = . | E = . | F = . | G = . | H = . | I = 6.5 | J = 4.5

COc1ccc(Cl)cc1NC(=O)NN1CCN(C)CC1
  A = i | B = -0.9 | C = 0.0 | D = 5.4 | E = 9.1 | F = 5.9 | G = -1.1 | H = 0.684 | I = -3.4 | J = 10.4

COc1ccc(S(=O)(=O)N2CCN(c3ccccn3)CC2)cc1OC
  A = . | B = . | C = 0.8 | D = 1.1 | E = . | F = . | G = . | H = 0.674 | I = -1.4 | J = -12.5

CC(C)CNC(=O)C(=O)NCC1CCCN1S(=O)(=O)c1cccs1 (centres undefined)
  A = i | B = -4.5 | C = -0.2 | D = 3.5 | E = 3.6 | F = 9.1 | G = 3.9 | H = 0.619 | I = -9.8 | J = -6.3

Cc1cc(C)cc(NCCC#N)c1
  A = i | B = -3.5 | C = 0.5 | D = 2.1 | E = 8.4 | F = 19.6 | G = -1.3 | H = 0.652 | I = -0.3 | J = 1.2

Cc1ccc(N2CC(C(=O)Nc3ccc4c(c3)OCCO4)CC2=O)cc1C (centres undefined)
  A = i | B = -6.5 | C = 0.5 | D = 1.1 | E = 3.5 | F = 10.2 | G = 0.6 | H = 0.67 | I = -4.0 | J = -5.0

CCOc1ccccc1NC(=O)C(Sc1nnc2ccccn12)c1ccccc1 (centres undefined)
  A = i | B = -1.9 | C = 0.7 | D = 1.2 | E = . | F = . | G = . | H = 0.71 | I = . | J = -9.0

CC(=O)c1ccc(N2CCN(C(=S)Nc3cccc(F)c3)CC2)cc1
  A = . | B = . | C = -0.9 | D = 0.5 | E = . | F = . | G = . | H = 0.707 | I = 1.9 | J = -6.5

COCCCNC(=S)Nc1cccc(SC)c1
  A = i | B = -1.0 | C = 1.0 | D = -0.7 | E = 7.3 | F = 8.8 | G = -3.2 | H = 0.68 | I = -5.5 | J = -5.2

Quoted from the listing:
Entry of `COc1cc(Oc2ccccc2)nc(N)n1` under E coli growth: 0.649
Entry of `Cc1sc(NC(=O)C2C3C=CC(C3)C2C(=O)O)c(C(N)=O)c1-c1ccc(C(C)C)cc1` (centres undefined) under E coli growth: 0.709
Entry of `Cc1cc(C)cc(NCCC#N)c1` under T cruzi repl: 1.2

(continued)
Short forms – A = FGF22 binding; B = MLL AF4-AF9 inh; C = Bfl-1 A1 inh; D = UCH37 DUB inh; E = Ecoli rRNA inh; F = Ecoli rRNA inh OD600; G = Ecoli rRNA inh RFP; H = E coli growth; I = Beta apoptosis; J = T cruzi repl
O=C(O)/C=C\C(=O)Nc1ccccc1C#Cc1ccc(Br)cc1
  A = . | B = . | C = 0.0 | D = -10.6 | E = . | F = . | G = . | H = 0.685 | I = -1.6 | J = -7.2

Brc1cccc(-c2cnc3n2CCCCC3)c1
  A = . | B = . | C = 1.9 | D = 5.4 | E = . | F = . | G = . | H = 0.667 | I = 3.9 | J = -5.8

Nc1ccc(C(=O)CC(=O)Nc2ccc(Cl)cc2)cc1
  A = i | B = 4.6 | C = -1.8 | D = 3.3 | E = -0.8 | F = -4.2 | G = 5.9 | H = 0.666 | I = -0.4 | J = -11.7

COc1ccc(C2C(C(C)=O)=C(C)Nc3ncnn32)cc1[N+](=O)[O-] (centres undefined)
  A = i | B = 2.1 | C = -1.4 | D = 4.5 | E = -0.8 | F = -0.9 | G = -6.4 | H = 0.69 | I = -6.2 | J = -2.7

C/C(=N\NC(=O)CCC(=O)Nc1ccc(C)c(C)c1)C1CC1
  A = i | B = -1.5 | C = -0.1 | D = . | E = 23.8 | F = 19.3 | G = 0.7 | H = . | I = -5.1 | J = .

Cc1ccc(N2CCN(C(=O)c3cccs3)CC2)cc1C
  A = i | B = 6.3 | C = 0.3 | D = 1.5 | E = -1.5 | F = -8.1 | G = -0.1 | H = 0.637 | I = -1.5 | J = -5.7

Cc1csc(SCC(=O)NCc2ccc3c(c2)OCO3)n1
  A = i | B = -19.4 | C = 0.1 | D = 1.9 | E = 0.3 | F = -7.0 | G = -3.2 | H = 0.661 | I = -4.0 | J = -3.2

O=C(CCCN=C1NS(=O)(=O)c2ccccc21)Nc1ccc(Cl)cc1
  A = i | B = -0.2 | C = 0.9 | D = -2.4 | E = -0.5 | F = -3.4 | G = 4.2 | H = 0.655 | I = -7.8 | J = .

CCCCCc1c(O)nc(SCC(=O)NCC2CCCO2)[nH]c1=O (centres undefined)
  A = . | B = . | C = -0.2 | D = 2.7 | E = . | F = . | G = . | H = 0.828 | I = -2.1 | J = -12.2

Cc1ccc(NS(=O)(=O)c2cc(OCC(N)=O)c(C)cc2Cl)cc1C
  A = . | B = . | C = 0.6 | D = 2.9 | E = . | F = . | G = . | H = 0.704 | I = 2.5 | J = -32.0

COc1ccc(-c2cc(=O)oc3c(C)c(OCC(=O)Nc4cccnc4)ccc23)cc1
  A = i | B = -1.7 | C = 0.2 | D = -37.3 | E = 1.3 | F = 2.9 | G = -0.7 | H = 0.683 | I = -1.6 | J = -1.7

COc1cccc(NC(=O)CN(C)CC(=O)Nc2ccc3c(c2)OCO3)c1
  A = . | B = -0.8 | C = 0.1 | D = 3.8 | E = -1.9 | F = -4.8 | G = -1.8 | H = 0.671 | I = -2.3 | J = .

Cn1ncc2c(Nc3cccc4ccccc34)ncnc21
  A = . | B = . | C = 0.2 | D = 0.1 | E = . | F = . | G = . | H = 0.739 | I = 2.6 | J = 8.4

O=C(NC1CCCCC1)c1ccc(S(=O)(=O)NCc2cccnc2)cc1
  A = . | B = . | C = 0.5 | D = 1.6 | E = . | F = . | G = . | H = 0.655 | I = 2.0 | J = -26.7

COc1ccc(OC)c(NC(=O)C23CCC(C)(C(=O)O2)C3(C)C)c1 (centres undefined)
  A = . | B = . | C = -0.4 | D = 4.9 | E = . | F = . | G = . | H = 0.764 | I = -3.3 | J = 5.0

CC(C)N(Cc1ccccc1)C(=O)COc1ccccc1
  A = i | B = -14.9 | C = 0.2 | D = 3.8 | E = -2.4 | F = 1.9 | G = -0.6 | H = 0.68 | I = -1.2 | J = -7.9

COc1ccc(S(=O)(=O)NCc2ccc(C(=O)O)cc2)cc1
  A = i | B = -2.7 | C = 0.0 | D = 4.8 | E = 4.5 | F = 9.7 | G = 0.8 | H = 0.707 | I = 3.6 | J = -15.0

Record cards (already shown). Order of screens: FGF22 binding	MLL AF4-AF9 inh	Bfl-1 A1 inh	UCH37 DUB inh	Ecoli rRNA inh	Ecoli rRNA inh OD600	Ecoli rRNA inh RFP	E coli growth	Beta apoptosis	T cruzi repl
Shown for CC(C)CNC(=O)C(=O)NCC1CCCN1S(=O)(=O)c1cccs1 (centres undefined) = i	-4.5	-0.2	3.5	3.6	9.1	3.9	0.619	-9.8	-6.3
Shown for COc1ccc(S(=O)(=O)N2CCN(c3ccccn3)CC2)cc1OC = .	.	0.8	1.1	.	.	.	0.674	-1.4	-12.5

Fetched one by one from above, 2 records:
Short forms – A = FGF22 binding; B = MLL AF4-AF9 inh; C = Bfl-1 A1 inh; D = UCH37 DUB inh; E = Ecoli rRNA inh; F = Ecoli rRNA inh OD600; G = Ecoli rRNA inh RFP; H = E coli growth; I = Beta apoptosis; J = T cruzi repl
COc1ccc(C2C(C(C)=O)=C(C)Nc3ncnn32)cc1[N+](=O)[O-] (centres undefined)
  A = i | B = 2.1 | C = -1.4 | D = 4.5 | E = -0.8 | F = -0.9 | G = -6.4 | H = 0.69 | I = -6.2 | J = -2.7

Cn1ncc2c(Nc3cccc4ccccc34)ncnc21
  A = . | B = . | C = 0.2 | D = 0.1 | E = . | F = . | G = . | H = 0.739 | I = 2.6 | J = 8.4
